# FGF22 binding = FGF22 (human) thermal shift binding; Q9HCT0; 340,000 compounds, 1.5% hits; recombinant FGF22 thermal shift, SYPRO orange fluorescence; percent of sucrose octasulfate shift, DMSO zero; calls only at 9.99 µM;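 active means melting point raised past a set limit in the mean and every replicate; inconclusive means no clear call; three in four hits are not shown here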
# Target sequence (Q9HCT0 whole entry, looked up): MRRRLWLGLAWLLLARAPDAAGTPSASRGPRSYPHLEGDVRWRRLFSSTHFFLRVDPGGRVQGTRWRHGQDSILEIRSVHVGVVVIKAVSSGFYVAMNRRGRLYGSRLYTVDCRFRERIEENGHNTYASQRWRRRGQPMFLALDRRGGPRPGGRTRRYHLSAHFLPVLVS
# Vif TR-FRET = HIV-1 Vif–A3G interaction blockers – biochemical, TR-FRET, GST-Vif 1-94, biotin-A3G peptide, dose response retest, primary screen (AID 1117319); TR-FRET GST-Vif / biotin-A3G peptide binding; higher % means a stronger effect; test concentration not given here; strong numbers were not always called active; one-dose inhibition, %; IC50 in µM for titrated hits; 260,000 compounds, 0.57% hits;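 active means above the screen mean plus three standard deviations and confirmed in dose response; inconclusive means results disagree or hit not tested in dose response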;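 further: Vif residues 1-94 fused to GST binding biotinylated APOBEC3G peptide 110-148; 0% = full assay without inhibitor and 100% = GST in place of GST-Vif; retest series ran down from 100 µM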
# MLL AF4-AF9 inh = inhibitors of human MLL-AF4/AF9 interaction | inhibition, % at 10 µM | 350,000 compounds, 0.47% hits | AlphaScreen, biotin-AF4 peptide binding to FLAG-AF9 | P42568;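 active means every replicate reaching a set inhibition limit, whatever the replicate mean, cut at about 25% in these data; inconclusive means mean inhibition reaches that limit but some replicates miss it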;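 further: 0% = plate neutral control median and 100% = total signal loss; the record names both 10 and 1 µM as test concentration; the first replicate is given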
# Target sequence (P42568 whole entry, looked up): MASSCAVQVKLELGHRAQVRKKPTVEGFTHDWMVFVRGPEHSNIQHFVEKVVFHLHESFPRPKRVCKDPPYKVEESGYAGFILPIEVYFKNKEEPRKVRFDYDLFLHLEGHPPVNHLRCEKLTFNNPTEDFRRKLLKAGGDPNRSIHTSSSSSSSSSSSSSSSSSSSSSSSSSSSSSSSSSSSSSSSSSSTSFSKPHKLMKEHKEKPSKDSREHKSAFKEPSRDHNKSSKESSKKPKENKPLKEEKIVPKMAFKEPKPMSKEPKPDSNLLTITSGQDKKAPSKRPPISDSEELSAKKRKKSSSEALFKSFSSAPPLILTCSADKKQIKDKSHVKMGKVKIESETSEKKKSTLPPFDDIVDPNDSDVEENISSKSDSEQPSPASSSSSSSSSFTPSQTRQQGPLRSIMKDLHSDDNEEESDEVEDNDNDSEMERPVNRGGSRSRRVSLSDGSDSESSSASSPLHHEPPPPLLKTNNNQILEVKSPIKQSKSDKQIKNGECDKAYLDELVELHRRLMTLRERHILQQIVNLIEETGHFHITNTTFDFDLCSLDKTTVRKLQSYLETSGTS
# UCH37 inh = human UCH37 deubiquitinating enzyme inhibition. Q9Y5K5. purified proteasome/UCH37, Ub-AMC cleavage fluorescence. inhibition, % (concentration not given with the values). 330,000 compounds, 0.33% hits;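 active means mean of two replicates above 20%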;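 further: 0% = compound-free wells with enzyme and 100% = wells lacking proteasome; stock transfer was 100 nL into about 20 µL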
# Target sequence (Q9Y5K5 whole entry, looked up): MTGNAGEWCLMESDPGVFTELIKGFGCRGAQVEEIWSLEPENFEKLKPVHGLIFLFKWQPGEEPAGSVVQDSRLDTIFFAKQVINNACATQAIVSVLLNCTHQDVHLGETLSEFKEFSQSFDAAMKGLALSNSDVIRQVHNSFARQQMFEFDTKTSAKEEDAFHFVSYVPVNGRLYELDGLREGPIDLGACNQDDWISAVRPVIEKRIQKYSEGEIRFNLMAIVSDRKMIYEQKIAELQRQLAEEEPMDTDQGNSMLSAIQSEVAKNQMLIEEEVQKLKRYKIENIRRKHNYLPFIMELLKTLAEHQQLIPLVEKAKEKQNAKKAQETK
#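 Material: Human UCH37 enzyme supplied as purified proteasome complex | Schedule: 30 min preincubation with enzyme, 25 min cleavage at room temperature | Detection: AMC fluorescence 355/460 nm | Measure: % inhibition of Ub-AMC cleavage fluorescence | Controls: Wells without proteasome as full block, compound-free enzyme plus substrate as uninhibited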
# RanGTP-Impb inh = disruptors of Ran-importin-beta complex formation – biochemical, FRET, CFP-Ran, YFP-importin-beta, homogeneous, primary screen. 300,000 compounds, 1.1% hits. inhibition, % (concentration not given with the values). cell-free CFP-Ran/YFP-importin-beta FRET ratio;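 active means most replicates above 15%; inconclusive means exactly half above 15%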;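 further: 0% = DMSO wells and 100% = Ran loaded with GDP instead of GTP; wells of about 40 µL received 100 nL stock; the first replicate is given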
# HNF4A DNA FP = change in binding of human HNF4 alpha to DNA; HNF4a-FITC DNA binding, fluorescence polarization, 1 h; activity change, % at 10 µM; 360,000 compounds, 0.3% hits; in the data active means activity change above about 30%, passing the limit was not always enough;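 further: controls were the assay level and a saturating level of protein; the project sought stronger binding though the title names inhibitors; some compounds called inactive have numbers as strong as hits; positive values seem to mean higher polarization but the record does not say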
# Ecoli growth = blocks Escherichia coli growth. OD600, 23 h; active compounds read low. OD600 absorbance (concentration not given with the values). 330,000 compounds, 0.21% hits;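 active means OD600 absorbance below the run mean of sample wells minus 3.6 SD, in any replicate, cut at about 0.56 in these data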;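 further: stock transfer was 300 nL into about 60 µL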
# Numbers without * were called inactive; i = inactive; u = inconclusive; x = no result given.
FGF22 binding	Vif TR-FRET	MLL AF4-AF9 inh	UCH37 inh	RanGTP-Impb inh	HNF4A DNA FP	Ecoli growth	Molecule
x	-3%	x	-214	4.0	2.9	0.69	CCOc1ccccc1Oc1c(C)oc2cc(OC(=O)c3ccco3)ccc2c1=O
i	-6%	-0.1	x	x	-2.9	x	CCN(CC)C(=O)C1=C(C)N(CCCN2CCCC2=O)C(=O)C(CC(=O)NC2CC2)C1 (stereo not drawn)
i	6%	-2.1	4.4	5.9	-0.2	0.72	Cc1cc(C(=O)NCc2ccccc2Cl)n(-c2ccccc2)n1
i	16%	1.5	5.4	u	-4.0	0.69	O=c1[nH]cc(S(=O)(=O)Nc2ccc3c(c2)OCO3)c(=O)[nH]1
x	-7%	x	3.4	4.3	0.4	0.71	Cc1ccc2c(c1)C1(SCCS1)C(=O)N2
x	0%	6.4	1.7	2.7	-2.5	0.69	Cn1c(=O)oc2cc(S(=O)(=O)Nc3ccccc3)ccc21
i	-5%	-2.2	9.8	4.1	1.9	0.7	CC(=O)c1sc(NS(=O)(=O)c2ccc(C)cc2)nc1C
i	25%	-5.1	0.3	x	-2.7	0.67	OCC(O)CNC(=S)NC1CCCCC1 (stereo not drawn)
x	-7%	x	-15	x	2.8	0.7	CCC(C)C(=O)Nc1nnc(-c2cccs2)s1 (stereo not drawn)
i	-3%	-14	4.0	1.2	-1.4	0.64	CC1CN(c2cnn(C(C)C)c(=O)c2Cl)CC(C)O1 (stereo not drawn)
i	x	5.1	0.8	x	-2.2	0.7	O=C(Nc1ccc(C(=O)N2CCC(N3CCOCC3)CC2)cc1)c1ccc(Br)o1
x	-2%	x	4.8	7.6	-1.0	0.71	O=C(CN1CCCCCC1)OCCN=C1NS(=O)(=O)c2ccccc21
i	-12%	0.3	0.9	x	6.9	0.68	COc1ccc(NC(=O)C23CC4CC(CC(Cl)(C4)C2)C3)cc1S(=O)(=O)N1CCOCC1
i	x	-4.9	x	x	0.4	x	CCCCC[C@@H](C)N1C[C@H](COCc2ccccc2)Oc2cc(N3CCC[C@@H]3COC)ccc2S1(=O)=O
x	-3%	x	-84	-1.9	0.6	0.69	Cc1ccc(NC(=O)CN2c3cccc4cccc(c34)S2(=O)=O)cc1S(=O)(=O)N1CCOCC1

# Exported comma-delimited: 6 of the compounds above.
molecule,FGF22 binding,Vif TR-FRET,MLL AF4-AF9 inh,UCH37 inh,RanGTP-Impb inh,HNF4A DNA FP,Ecoli growth
CCC(C)C(=O)Nc1nnc(-c2cccs2)s1 (stereo not drawn),x,-7%,x,-15,x,2.8,0.7
CC(=O)c1sc(NS(=O)(=O)c2ccc(C)cc2)nc1C,i,-5%,-2.2,9.8,4.1,1.9,0.7
CCN(CC)C(=O)C1=C(C)N(CCCN2CCCC2=O)C(=O)C(CC(=O)NC2CC2)C1 (stereo not drawn),i,-6%,-0.1,x,x,-2.9,x
CC1CN(c2cnn(C(C)C)c(=O)c2Cl)CC(C)O1 (stereo not drawn),i,-3%,-14,4.0,1.2,-1.4,0.64
O=C(CN1CCCCCC1)OCCN=C1NS(=O)(=O)c2ccccc21,x,-2%,x,4.8,7.6,-1.0,0.71
Cc1cc(C(=O)NCc2ccccc2Cl)n(-c2ccccc2)n1,i,6%,-2.1,4.4,5.9,-0.2,0.72

# Following part:
FGF22 binding	Vif TR-FRET	MLL AF4-AF9 inh	UCH37 inh	RanGTP-Impb inh	HNF4A DNA FP	Ecoli growth	Molecule
i	-4%	-2.0	7.2	4.9	-0.9	0.73	CC(=O)N1CCC(=NNc2ccc(S(N)(=O)=O)cc2[N+](=O)[O-])CC1
i	x	5.9	x	x	1.3	x	CCc1nc2ccc(C(=O)NCCCN(C)C)cn2c1N(C)Cc1ccc(OC)cc1
x	2%	x	0.9	-2.4	x	0.75	COC(=O)C1C(=O)c2c([nH]c(C(=O)OCCOC(C)C)c2C)CC1C (stereo not drawn)
x	-5%	x	7.2	-0.6	0.6	0.7	COC(=O)c1cn(NC(=O)C2CCCCC2)c(=O)c2ccccc12
i	-2%	-2.8	-93	u	2.2	0.67	CCCCNc1nc2ccccc2nc1NS(=O)(=O)c1ccc(F)cc1
x	-3%	x	3.2	-1.9	1.9	0.72	S=C(c1nc2ccccc2[nH]1)N1CCOCC1
i	x	0.8	3.1	4.7	0.2	0.7	Cc1ccc(C)c(NC(=O)CCC(=O)N2CCOc3ccccc32)c1
x	2%	x	2.9	0.3	0.0	0.68	O=C(/C=C/c1ccccc1)c1ccc2c(c1)OCCCCO2
i	x	0.1	3.2	x	4.8	x	Cc1noc(C)c1NC(=O)Nc1ccc2c(c1)C(=O)N([C@H](C)CO)C[C@H](C)[C@@H](CN(C)S(C)(=O)=O)O2
x	u	x	3.7	-2.7	1.8	0.69	Cc1cc(C)c(NC(=O)C(C)OC(=O)c2cc(Br)c(Br)s2)c(C)c1 (stereo not drawn)
x	2%	x	4.1	3.8	-0.3	0.71	O=C(Cc1cccs1)Nc1nnc(SCC(=O)NC2CCCCC2)s1
x	10%	x	17	3.1	-0.8	0.74	CN(C)/C=C1\N=C(c2ccc3c(c2)OCO3)OC1=O
i	x	-2.7	x	x	-0.9	x	COc1ccc(-c2cc(C(=O)NCC3CCCCC3)[nH]n2)c(C)c1
i	x	-2.5	i	8.4	-0.3	0.67	O=C(O)CCCCCNS(=O)(=O)c1ccc2c3c(cccc13)C(=O)N2
x	-4%	x	-27	-4.7	1.1	0.72	CCCCc1nc(N2CCOCC2)c(C#N)c2c1CCCC2
i	x	-1.7	x	x	1.4	x	CCNC(=O)C1(C)CCCN(C(=O)c2nc3ccccc3s2)C1 (stereo not drawn)
i	-5%	-1.8	2.0	x	1.4	0.7	N#Cc1ccccc1OCC(=O)NC1CCCCC1
i	-5%	0.3	x	x	0.0	x	N#Cc1c(-c2ccc(Cl)cc2)c(-c2ccc(Cl)cc2)nn(CCOC(=O)CCC(=O)O)c1=O
x	-3%	x	-30	-3.1	x	0.77	COc1ccccc1Nc1cc(C(=O)N2CCc3ccccc3C2)c2ccccc2n1
i	-5%	-1.9	2.3	x	33*	0.72	Cc1ccc(NC(=O)CN2C(=O)NC(C)(C)C2=O)cc1S(=O)(=O)N1CCCCCC1
x	9%	x	0.7	2.1	13	0.69	CC(=O)c1c(N2CCN(c3ccccc3)CC2)nc(=S)n(-c2ccccc2)c1C
x	29%	x	3.6	-1.8	0.1	0.68	COc1ccc(C2=NN(CC(=O)NCc3ccco3)C(=O)CC2)cc1
i	x	3.8	0.3	-1.5	-2.4	0.67	Cc1cc(C(=O)NCCc2ccc(Cl)cc2)c(C)o1
x	u	x	-1.4	u	0.0	0.72	C=CCOc1c(Cl)cc(CNc2ccc(N(C)C)cc2)cc1OC
x	4%	x	1.6	-0.5	1.2	0.7	COc1ccc(OCCn2c(=N)n(CCO)c3ccccc32)cc1
x	x	x	-24	-1.3	6.0	0.81	COc1cccc(OCc2cc(C3Nc4ccccc4C(=O)N3Cc3ccco3)ccc2OC)c1 (stereo not drawn)
x	10%	x	2.7	-4.2	-2.1	0.76	COc1ccc(CCNC(=O)Cn2c(=O)oc3ccccc32)cc1OC
i	-5%	-5.6	27*	-1.6	-0.8	0.74	CCN(CC)C(=O)C1=C(C)NC(=S)NC1c1cccs1 (stereo not drawn)
i	x	-4.8	3.6	2.4	2.4	0.61	O=C(N=C1SC2CS(=O)(=O)CC2N1c1cc(Cl)ccc1Cl)C1CCCO1 (stereo not drawn)
i	29%	0.6	x	-2.1	71*	x	NC(=O)N/N=C/c1ccc(N2CCOCC2)s1
i	x	7.3	4.6	-0.4	2.8	0.68	CCOC(=O)C1=C(CNCc2ccc(F)cc2)NC(=O)NC1c1cccc([N+](=O)[O-])c1 (stereo not drawn)
x	x	x	4.6	-1.1	4.5	0.7	Cc1cc(C)cc(NC(=O)C(OC(=O)C2=COCCO2)c2ccccc2)c1 (stereo not drawn)
i	1%	-1.0	-1.1	u	-1.4	0.74	COc1ccc(C(CNC(=O)Cc2c(F)cccc2Cl)N2CCCCC2)cc1 (stereo not drawn)
i	7%	0.5	2.8	-1.2	0.2	0.69	Cn1c(N)c(C(=O)COC(=O)CC(NC(=O)c2ccccc2Cl)c2ccccc2)c(=O)n(C)c1=O (stereo not drawn)
i	-5%	2.2	3.4	0.7	0.6	0.67	COc1ccc(OC)c(CNn2c(-c3ccccc3F)nc3ccccc3c2=O)c1
i	x	-7.7	x	x	-2.6	x	CC(C)(C)OC(=O)N(CCc1ccccc1)Cc1ccc(OCc2cccc(NC(=O)C3CCC3)c2)cc1
i	x	-2.1	0.8	5.3	-4.4	x	CC(C)C[C@H]1CNC(=O)C(=O)N1C[C@H](C)NC(=O)Cc1ccccc1
i	x	0.9	0.1	1.9	-1.4	0.7	Cc1c(C)c2cc(Cl)c(OCC(=O)N3CCN(c4ccc(F)cc4)CC3)cc2oc1=O
i	-10%	-0.4	1.9	2.0	5.9	0.68	N=c1oc2ccc(Cl)cc2cc1C(=O)Nc1ccc(F)cc1
i	0%	36*	6.0	x	109*	0.69	CC1=NN(c2ccccc2)C(=O)/C1=C\C=C1/N(C)c2ccccc2C1(C)C
x	u	x	-18	43*	-26	0.76	COc1ccc(C2OC34CCCCC3C(C#N)(C#N)C2(C#N)C(=N)O4)cc1 (stereo not drawn)
x	2%	x	3.9	1.9	4.1	0.75	CCn1cnc2cc(NS(=O)(=O)c3ccc(C)cc3)ccc21
x	x	x	4.8	-2.6	2.8	0.63	c1ccc(-c2ccccc2OCCCCN2CCCCC2)cc1
i	5%	5.8	0.2	-1.5	-1.1	0.68	O=C(NS(=O)(=O)Oc1ccc(Cl)cc1)OC[C@@H]1CCCN2CCCC[C@H]12
x	-1%	x	14	-1.7	-0.4	0.65	CN1c2ccccc2C(O)=C(C(=S)Nc2ccc(F)c(Cl)c2)S1(=O)=O
i	-16%	-2.5	5.0	1.3	2.8	0.67	COC(=O)c1cc2sccc2n1CC(=O)N(C)c1ccccc1
i	6%	5.5	2.0	0.1	-0.9	0.67	O=C(CN1C(=O)C(=O)N(Cc2ccco2)C1=O)c1c[nH]c2ccccc12
i	-7%	-3.2	3.6	x	4.2	0.68	Cc1noc(C)c1COc1cccc(C(=O)N(C)Cc2nc3ccccc3c(=O)[nH]2)c1
x	-6%	x	x	2.1	-0.7	x	COc1ccc(CC(=O)N/N=C(\C)c2ccccn2)cc1
i	x	-2.0	5.0	2.6	-1.4	0.7	N/C(=N\OC(=O)COc1ccc(Cl)cc1Cl)c1ccccn1
x	-10%	x	2.2	-2.2	0.6	0.68	Cc1ccc(C)c(C(=O)CN2C3=NCCCN3c3ccccc32)c1
x	x	x	6.7	-1.5	0.6	0.71	O=C(NCc1ccccc1)c1ccc(NC2=NC3CS(=O)(=O)CC3S2)cc1 (stereo not drawn)
x	0%	x	x	-2.5	1.0	x	O=c1c2ccccc2nc(SCc2nnc(-c3ccccc3)o2)n1-c1ccc(F)cc1F
x	-5%	x	0.1	0.3	-0.8	0.69	Cc1ccc(N2CC(C(=O)Nc3ccccc3C(=O)NC3CCCCC3)CC2=O)cc1 (stereo not drawn)
i	x	-0.4	4.6	-0.4	3.4	0.68	CC(=O)NC(CC(=O)NCCCn1ccc2ccccc21)c1ccccc1 (stereo not drawn)
i	7%	-0.6	2.1	0.9	-1.1	0.66	O=C(CCc1ccccc1)NNC(=O)c1ccccn1
x	2%	x	3.3	-4.5	-4.3	0.72	COC(=O)[C@H](C)NC(=O)Nc1ccc(S(N)(=O)=O)cc1
x	3%	x	4.8	0.4	1.1	0.78	CC(=O)Nc1ccc2c(c1)CCCN2C(=O)c1ccccc1
i	-11%	2.2	2.4	-1.6	3.4	0.67	CSc1nc(N)nc(C2CC2)n1

# These rows are one share of the data, so the mix of outcomes need not match the whole.
